# Lassa entry inh – inhibitors of Lassa virus binding or cell entry; Lassa virus pseudotype entry inhibition, cell reporter; control for the full effect not named in the record; Potency, µM (highest dose often 37.9 µM), without a hit: at the highest dose activity change, negative = inhibition, usual class: inhibitors; 300,000 compounds, 1.2% hits; AID 540256; active means well fitted inhibition curve with a large enough effect; inconclusive means small, poorly fitted or top-dose-only effect, or effect the other way; inactive means flat fitted curve, though single readings scatter; tested in HEK293 cells; also: % is scaled to controls: 0 for no effect and ±100 for the full control effect; nearly all actives have a fitted effect of over 50% in size; luciferase read-out
# RE007 growth inh – less growth of the S. pombe RE007 Vpr strain. AID 651644. 360,000 compounds, 0.21% hits. Potency, µM (titrated, usually from 92.2 µM), inactives show at the highest dose activity change, negative = less growth. S. pombe RE007 Vpr strain, BacTiter-Glo ATP luminescence, 24 h; control for the full effect not named in the record; active = well fitted falling curve with a large enough effect; inconclusive = small, poorly fitted or top-dose-only effect; inactive = no such curve, though single readings can be large or run the other way;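 also: % is scaled to controls: 0 for no effect and ±100 for the full control effect; nearly all actives have a fitted effect of over 50% in size; the assay follows cell death caused by Vpr and the record does not say whether a fall means rescue or toxicity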
#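 Fission yeast RE007 carrying one integrated HIV-1 vpr copy, seeded at OD 0.01 in PMG+AL medium with 23 nL pinned compound. Grown 24 h at 30 degrees; viability read by BacTiter-Glo luminescence after 5 min.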
# Cruzain Triton – cruzain (T. cruzi) inhibition with detergent; 200,000 compounds, 0.43% hits; Potency, µM, for inactives: max response, negative = inhibition, most hits filed as inhibitors; P25779; purified cruzain, Z-FR-AMC fluorescence, 0.01% Triton; active = well fitted curve in the direction sought with a large enough effect; inconclusive = small, poorly fitted or top-dose-only effect, or another doubt; inactive = no such curve, though single readings can be large; an effect the other way counts as inactive or inconclusive;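 also: plate controls were neutral wells for no effect and buffer without enzyme for full effect; nearly all actives have a fitted effect of over 40% in size; top concentration of the series not given in the record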
# Target sequence (P25779 123-467 limits assumed): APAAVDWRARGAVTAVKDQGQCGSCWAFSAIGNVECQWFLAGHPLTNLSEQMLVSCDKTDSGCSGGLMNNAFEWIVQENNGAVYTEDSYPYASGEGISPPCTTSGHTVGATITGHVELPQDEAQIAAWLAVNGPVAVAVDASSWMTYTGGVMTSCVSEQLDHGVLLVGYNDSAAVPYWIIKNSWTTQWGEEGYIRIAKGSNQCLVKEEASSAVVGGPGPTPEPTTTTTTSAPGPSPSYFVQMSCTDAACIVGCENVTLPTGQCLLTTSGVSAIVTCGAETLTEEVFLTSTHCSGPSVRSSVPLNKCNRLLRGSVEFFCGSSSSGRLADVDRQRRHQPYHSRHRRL
#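 Sodium acetate buffer (100 mM, pH 5.5) containing 5 mM DTT and 0.01% Triton X-100 hosted 1.5 nM cruzain and test compound for 15 min at room temperature. Cleavage of 2 uM Z-FR-AMC was then tracked by fluorescence.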
# Marburg entry inh – blocks Marburg virus binding to or entry into cells; Marburg virus pseudotyped entry inhibition, cell reporter; control for the full effect not named in the record; about a third of the inactives were read at about 46 µM; 300,000 compounds, 1.8% hits; Potency, µM (titrated, usually from 37.8 µM), without a hit: at the highest dose activity change, negative = inhibition, hits mostly inhibitors; active = well fitted inhibition curve with a large enough effect; inconclusive = small, poorly fitted or top-dose-only effect, or effect the other way; inactive = flat fitted curve, though single readings scatter; tested in HEK293 cells; about a fifth of its hits are not listed in these tables; also: % is scaled to controls: 0 for no effect and ±100 for the full control effect; luciferase read-out
# SARS PLpro yeast – SARS-CoV PLP inhibition in yeast. Potency, µM (top dose mostly 32.9 µM), for inactives: at the top dose activity, positive = growth rescue. 330,000 compounds, 0.19% hits. S. cerevisiae expressing SARS-CoV PLpro, growth rescue; control for the full effect not named in the record; also: 0% is about no effect; nearly all actives have a fitted effect of over 55% in size; growth read by luminescence after 48 h
# NS1 function inh – inhibitors of influenza NS1 protein function. 270,000 compounds, 0.4% hits. Potency, µM (series often up to 46.1 µM), for inactives: at the top dose activity, positive = more growth. S. cerevisiae slowed by influenza A NS1, growth recovery by OD600; also: actives are rising curves; nearly all actives have a fitted effect of over 50% in size
#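 Recovery from NS1-induced slow growth read by OD600 in budding yeast switched to galactose assay medium (pH 6.0, -URA) at 1:100 dilution. Compound 23 nl per well; the matching strain lacking NS1 serves as control.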
# 2A StopGo – FMDV 2A StopGo reporter, luciferase signal | human cells with a luciferase reporter of 2A StopGo recoding; control for the full effect not named in the record | Potency, µM (titrated, usually from 57.9 µM), without a hit: at the top dose signal change, negative = less light | 410,000 compounds, 1.2% hits | AID 1159524; active = well fitted falling curve with a large enough effect; inconclusive = small, poorly fitted or top-dose-only effect; inactive = no such curve, though single readings can be large or run the other way; tested in HEK293T cells; also: % is scaled to controls: 0 for no effect and ±100 for the full control effect; nearly all actives have a fitted effect of over 45% in size; luciferase light after 4 h
# Cruzain inh noDet – blocks cruzain activity in detergent-free assay. Potency, µM, without a hit: max response, negative = inhibition, actives largely listed as inhibitors. purified cruzain, Z-FR-AMC fluorescence, no detergent. P25779. 200,000 compounds, 2.3% hits; active = well fitted curve in the direction sought with a large enough effect; inconclusive = small, poorly fitted or top-dose-only effect, or another doubt; inactive = no such curve, though single readings can be large; an effect the other way counts as inactive or inconclusive;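 also: plate controls were enzyme without inhibitor for no effect and buffer without enzyme for full effect; nearly all actives have a fitted effect of over 40% in size; top concentration of the series not given in the record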
#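 Detergent-free condition (0.00005% Triton X-100) in acetate buffer pH 5.5 with DTT. 1.5 nM enzyme and compound were pre-mixed 15 min, then 2 uM Z-FR-AMC substrate added; reaction progress from fluorescence change between first and third reads (60 s).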
# Starred values were filed as active, the others as inactive; ? = inconclusive; . = no result given; & = joins results of further samples; [ ] = remark or other dose. Unless noted, calls follow the shape of the dose curve; as a rule, active means well fitted rising curve with a large enough effect; inconclusive means small, poorly fitted or top-dose-only effect; inactive means no such curve, though single readings can be large or run the other way. Potency is read from the fitted curve at half-maximal effect. This is a random part of the collection. About 4.5% of those tested had a hit in this group.
SMILES,Lassa entry inh,RE007 growth inh,Cruzain Triton,Marburg entry inh,SARS PLpro yeast,NS1 function inh,2A StopGo,Cruzain inh noDet
CCOC(=O)c1sc(=NC(=O)/C=C/c2cccs2)n(C)c1C,26%,24%,.,?,-4%,.,78%[activator],.
O=C(c1ccccc1)N1CCN(C(=O)C23CC4CC(CC(C4)C2)C3)CC1,-13%,-15%,2.7%,-4%,8%,-22%,-17%,-3%
Cc1onc(-c2c(F)cccc2Cl)c1C(=O)NCCc1ccc(S(N)(=O)=O)cc1,7%,-5%,2.2%,?,.,-4%,5%,-3%
O=C(Nc1ccccc1N1CCCCC1)c1ccc([N+](=O)[O-])o1,?,1%,.,-16%,-4%,.,-16%,.
Cc1c(Br)c(C(F)(F)F)nn1CC(=O)NCCN1CCOCC1,4%,14%,-1.7%,9%,5%,-3%,.,-7%
COc1ccc(N2Cc3cccc(C(=O)N4CCOCC4)c3C2=O)cc1,1%,6%,2.5%,11%,-1%,-2%,1%,5%
Cc1ccc(S(=O)(=O)N(C)C2(C)CCS(=O)(=O)C2)cc1 (stereo not drawn),-3%,-5%,0.3%,-17%,3%,1%,10%,3%
FC(F)(F)c1ccc(Cl)c(NC2=NCCCCC2)c1,?,-14%,.,2%[46.1 µM],5%,6%,-27%,.
CCCOc1ccc(C(=O)NNC(=S)NC(=O)c2cccs2)cc1,?,-9%,.,11µM*,-38%,-92%,0%,.
c1ccc(Cn2nnnc2CN2CCOCC2)cc1,11%,20%,7.0%,1%,0%,-9%,11%,-3%
COc1cc(C(=O)OCC(=O)Nc2c(F)c(F)c(F)c(F)c2F)cc(OC)c1OC,5%,-2%,-3.0%,-4%&-4%,3%,-8%,14%,6%
O=C(NC1CCCC1)C(NS(=O)(=O)c1cccc2nsnc12)c1ccccc1 (stereo not drawn),13%,6%,-12%,8%&8%,1%,-11%,44%[activator],-3%
CC(=O)c1c(C)[nH]c(C(=O)NCc2cccs2)c1C,?,7%,3.1%,16%,-1%,2%,74%[activator],-7%
COc1cccc(CNC(=O)CN2C(=O)NC(c3ccccc3)(c3ccccc3)C2=O)c1,?,3%,.,5%[46.1 µM],-1%,.,-19%,.
Cc1cc(Cl)c(S(N)(=O)=O)cc1OCC(N)=O,-11%,-2%,3.2%,17%,1%,1%,10%,-2%
CSc1ccc(Cl)c(C(=O)OCC(=O)N2CCN(c3ccccc3)CC2)c1,-2%,2%,.,-4%,-4%,.,-24%,.
Cc1ccn2c(NC(=O)c3ccco3)c(-c3ccccc3)nc2c1,4%,15%,-0.5%,31%,10%,-6%,14%,-3%
CCc1cc2c(SCC#N)ncnc2s1,?,-17%,.,12%[46.1 µM],-2%,1%,-13%,.
Cc1ccc(-n2nc3c(c2NC(=O)CCC2CCCCC2)CS(=O)C3)cc1 (stereo not drawn),.,0%,4.3%,.,-9%,7%,-26%,18%
Fc1ccccc1Nc1n[nH]c(=S)s1,-10%,-7%,.,-21%[46.1 µM],5%,0%,41%[activator],.
CCc1ccc(S(=O)(=O)NCc2csc(C)n2)cc1,0%[46.1 µM],-6%,.,?,2%,3%,7%,.
CN(C)c1nnnn1-c1cccc(Oc2ncc(C(F)(F)F)cc2Cl)c1,-28%[46.1 µM],11%,.,?,-1%,.,-21%,.
Cc1cc(N/N=C/c2ccc(N(C)C)cc2)nc(NCc2ccccc2)n1,.,1%,.,.,0%,-1%,?,.
CCc1nnc(NC(=O)Cn2nc(-c3ccc(OC)c(OC)c3)ccc2=O)s1,-14%,-15%,0.6%,1%,2%,-2%,-5%,30%
CCOc1ccc2ncc3c(-c4cccc(OC)c4)nn(-c4ccccc4)c3c2c1,-11%[46.1 µM],.,5.4%,?,.,.,-27%,-3%

# Next section.
SMILES,Lassa entry inh,RE007 growth inh,Cruzain Triton,Marburg entry inh,SARS PLpro yeast,NS1 function inh,2A StopGo,Cruzain inh noDet
CC(=O)COC(=O)c1cc(-c2ccc(C)cc2)nc2ccccc12,.,1%,.,.,1%,0%,5%,.
Cc1cc(NC(=S)Nc2ccc(C)c(Cl)c2)n[nH]1,7%,-16%,.,-3%[46.1 µM],-4%,7%,64%[activator],.
COC(=O)CCN1CCC(c2cc(-c3cccc(C(F)(F)F)c3)n[nH]2)CC1,29%[46.1 µM],-2%,.,5%[46.1 µM],0%,-5%,-15%,.
Cc1ccccc1-n1nc(CO)c(C(=O)NCc2cccs2)n1,?,.,-1.3%,?,.,.,-19%,-16%
CN(C(=O)CSc1nc2cc(Cl)ccc2c(=O)n1Cc1ccco1)C1CCS(=O)(=O)C1 (stereo not drawn),6%[46.1 µM],3%,.,6%[46.1 µM],0%,.,-10%,.
COc1cccc(NC(=O)CC(C)=O)c1,4%,11%,0.1%,-6%,11%,23%,-10%,-7%
Cc1cc(C)cc(N(CC(=O)N2CCn3c2nc2ccccc23)S(=O)(=O)c2c(C)noc2C)c1,.,9%,-4.9%,-5%,-4%,-39%,-26%,?
COc1ccc(NC(=O)CN(C)CC(=O)Nc2cccc3ccccc23)c(OC)c1,1%,-19%,.,12%,-2%,.,0%,.
CCCNC(=O)COC(=O)c1cc(-c2ccc(OC)cc2)nc2ccccc12,?,-29%,.,?,-9%,.,-7%,.
CC(C)n1c(=S)[nH]c2c1c(=O)[nH]c(=O)n2C,7%,10%,-1.3%,?,-1%,-1%,-5%,-2%
CC1CCN(C(=O)c2cc(Cl)ccc2NC(=O)c2ccco2)CC1,.,-6%,.,-9%[46.1 µM],0%,3%,17%,.
C=CCOc1ccc(-c2nc3c(c(=O)[nH]c(=O)n3Cc3ccccc3)n2CCCOC)cc1,?,-2%,.,-12%[46.1 µM],4%,16%,-2%,.
CCOc1ccc2[nH]c(C)cc(=O)c2c1,.,-15%,1.4%,.,7%,8%,-21%,-12%
Cc1cc(=O)oc2cc(OCC(=O)Nc3nnc(C(C)C)s3)ccc12,9%,13%,-1.4%,-11%,3%,8%,7%,-4%
CC(=O)c1ccc(S(=O)(=O)NC2CC(=O)N(c3ccc(C)c(C)c3)C2)cc1 (stereo not drawn),0%,27%,.,8%[46.1 µM],2%,.,42%[activator],.
CCOC(=O)c1[nH]c2cc(OC)c(OC)cc2c1NC(=O)c1nonc1C,-5%,22%,3.4%,-28%,-15%,15%,-12%,-2%
C=CCN1C2=NCCCN2c2ccccc21,.,-17%,.,.,-1%,0%,-14%,.
O=S(=O)(Nc1ccc(Br)cc1F)c1ccc2nc(-c3ccccc3)[nH]c2c1,1%[46.1 µM],.,-1.9%,-24%[46.1 µM],.,.,66%[activator],?
COc1ccc(-c2cn(Cc3ccc([N+](=O)[O-])cc3)nn2)cc1,.,-8%,.,.,-3%,-18%,29%,.
CCOC(=O)/C(=C\c1cn(C)c2ccccc12)[N+](=O)[O-],0%,3%,-2.7%,14%,2%,-4%,28µM*,1%
O=C(CN(Cc1cccs1)C(=O)CNS(=O)(=O)c1ccc(F)cc1)NCC1CCCO1 (stereo not drawn),.,-3%,.,-4%[46.1 µM],-1%,-2%,19%,.
NS(=O)(=O)c1cccc(NC(=O)COC(=O)CSCc2ccccc2)c1,5%,-4%,.,20%,-1%,.,-1%,.
Cc1ccccc1S(=O)(=O)Nc1nc2ccccc2nc1Cl,19%[46.1 µM],-2%,.,25%[46.1 µM],6%,.,8%,.
CCOc1cc(NC(=O)C2CC2)c(OCC)cc1NC(=O)c1ccccn1,?,1%,1.2%,?,2%,-25%,-29%,?
COc1ccc(NC(=O)C(Sc2nnc3ccccn23)c2ccccc2)cc1Cl (stereo not drawn),12%,-2%,-0.5%,-10%,-2%,3%,-12%,2%

# Next results:
SMILES,Lassa entry inh,RE007 growth inh,Cruzain Triton,Marburg entry inh,SARS PLpro yeast,NS1 function inh,2A StopGo,Cruzain inh noDet
O=C(c1cccs1)c1cn(CCOc2ccccc2F)c2ccccc12,20%[46.1 µM],.,-5.1%,?,.,.,-8%,-18%
Cc1c(C(=O)NC(C)CN2CCCCC2)oc2ccccc12 (stereo not drawn),20%,15%,-3.8%,11%,-2%,2%,19%,11%
S=C(NCc1cccs1)Nc1cc(Cl)cc(Cl)c1,-5%[46.1 µM],-11%,.,?,-6%,-65%,1%,.
O=C(c1ccc(OC2CCN(CCc3ccccc3)CC2)cc1)N1CCC[C@H]1CO,.,-6%,.,.,-11%,4%,-2%,.
COC(=O)c1c(C)[nH]c(C)c1-c1ccccc1,19%,-21%,2.2%,-4%,-31%,-90%,-11%,-8%
Cc1cccnc1NC(=O)CNC(=O)C12CC3CC(CC(Cl)(C3)C1)C2,0%,?,.,-18%,2%,.,-6%,.
COc1ccc(OC)c(NC(=O)C2CCC(CNc3c(N4CCC(C)CC4)c(=O)c3=O)CC2)c1 (stereo not drawn),.,6%,-3.3%,.,0%,-32%,27%,-9%
COCCn1nnnc1C(c1ccc(OC)cc1OC)N1CCN(c2ccccc2F)CC1 (stereo not drawn),-4%,-14%,2.0%,21%&21%,1%,-14%,6%,?
CCCCOCCCNC(=O)N[C@H](C(=O)OC)C(C)C,-1%,19%,-5.6%,12%,-4%,1%,-9%,-4%
Cn1c(=O)c2c(nc(SC3C(=O)CC(C)(C)CC3=O)n2C)n(C)c1=O,-4%,-4%,0.4%,3%,3%,6%,.,-13%
Cc1cc(C)c(C(=O)COC(=O)CCn2c(C)csc2=O)cc1C,0%,-4%,.,?,-1%,.,14%,.
COc1ccc(-c2nnc(SCC(=O)c3[nH]c(C)c(C(C)=O)c3C)o2)cc1,1%,9%,-0.3%,-15%,-3%,-8%,?,?
CC(c1ccccc1)C1CC(=O)N(C2CCCCC2)C1=O (stereo not drawn),0%,-1%[3.69 µM],1.2%,-24%,2%,-9%,-1%,-15%
CN(C)CCn1c(=S)[nH]c2ncccc2c1=O,2%,-8%,.,-4%[46.1 µM],1%,.,3%,.
COc1cccc(C(=O)n2c(SC)nc3cc4c(cc32)OCCO4)c1,11%,33%,-15%,8%,-9%,-8%,51%[activator],23%
Cc1cc2c3c(c1C)C(=O)C(=O)N3C(C)(C)CC2C (stereo not drawn),.,6%,.,.,1%,-3%,-1%,.
Cc1ccc(OCCn2c(CCNC(=O)C3CCCCC3)nc3ccccc32)cc1,-7%[46.1 µM],.,1.3µM*,0%[46.1 µM],.,.,.,-10%
CCCSc1nc2c(c(=O)[nH]c(=O)n2C)n1C,5%,-4%,1.6%,-13%,1%,0%,2%,12%

# Screens: PubChem, National Center for Advancing Translational Sciences (NCATS)
